CtBP-E1A inh – CtBP/E1A binding inhibition; 340,000 compounds, 0.49% hits; AID 651724; AlphaScreen GST-E1A/His-CtBP binding, 1536-well; stronger effect = lower value; control for the full effect not named in the record; activity change, % (concentration not given with the values); in the data active means activity change below about -65%; inconclusive means about -30% to -65%; inactive means above about -30%; further: on the % scale 0 is the no-effect control and ±100 the full control effect
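In 5 uL wells, 23 nL compound meets equimolar GST-E1A and His-CtBP (5X stock 125 nM each) for 2 h, 37 °C. Beads (5X, 50 ug/mL) then 1 h, 37 °C, dark.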
Six1-Eya2 inh – blocks human Six1 binding to Eya2. AID 651725. activity change, % (test concentration not listed). AlphaScreen GST-Six1/His-Eya2 binding, biochemical; stronger effect = lower value; control for the full effect not named in the record. 360,000 compounds, 0.56% hits; in the data active = activity change below about -65%; inconclusive = about -30% to -65%; inactive = above about -30%; further: on the % scale 0 is the no-effect control and ±100 the full control effect
Target sequence (O00167 whole entry, looked up): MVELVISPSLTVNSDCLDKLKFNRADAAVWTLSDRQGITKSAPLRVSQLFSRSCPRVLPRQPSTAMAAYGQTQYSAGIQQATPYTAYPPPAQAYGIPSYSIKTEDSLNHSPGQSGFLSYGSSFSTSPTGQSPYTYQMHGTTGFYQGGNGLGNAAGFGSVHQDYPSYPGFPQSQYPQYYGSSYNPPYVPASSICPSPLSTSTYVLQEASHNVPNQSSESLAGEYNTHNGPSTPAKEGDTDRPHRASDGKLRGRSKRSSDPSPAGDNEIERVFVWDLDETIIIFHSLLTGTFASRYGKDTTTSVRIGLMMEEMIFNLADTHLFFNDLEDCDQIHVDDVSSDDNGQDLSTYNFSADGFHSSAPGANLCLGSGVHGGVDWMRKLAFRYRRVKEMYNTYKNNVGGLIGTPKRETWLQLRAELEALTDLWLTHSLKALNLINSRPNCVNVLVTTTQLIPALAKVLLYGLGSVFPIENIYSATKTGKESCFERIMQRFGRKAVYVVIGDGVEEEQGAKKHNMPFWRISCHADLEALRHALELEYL
Target sequence (Q15475 whole entry, looked up): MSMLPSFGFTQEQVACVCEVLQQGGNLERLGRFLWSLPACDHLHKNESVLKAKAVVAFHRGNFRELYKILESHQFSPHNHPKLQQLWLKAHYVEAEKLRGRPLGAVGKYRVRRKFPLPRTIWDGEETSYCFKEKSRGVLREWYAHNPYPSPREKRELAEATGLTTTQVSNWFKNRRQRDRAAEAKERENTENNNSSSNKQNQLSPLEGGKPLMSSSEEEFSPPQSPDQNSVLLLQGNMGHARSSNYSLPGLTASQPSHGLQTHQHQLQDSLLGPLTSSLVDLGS
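AlphaScreen with GST-Six1 and His-Eya2 (5X mix: 250 nM and 500 nM), glutathione donor and nickel acceptor beads; buffer 50 mM Tris pH 8.0, 300 mM NaCl, 1 mM TCEP; 1 h at 37 C in the dark.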
TRPML1 agonist – human mucolipin-1 channel agonism. activation, % (no concentration beside the values). TRPML1-expressing cells, Ca2+ dye fluorescence, FDSS; host cell line not named in the record; reference of the full effect not given here. 410,000 compounds, 0.12% hits. Q9GZU1; in the data active = activation above about 50%; inconclusive = about 30% to 50%; inactive = below about 30%; further: 0% is about no effect; the text of the record puts the active cut at 80%
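Kinetic FDSS Ca2+ read in Tet-induced TRPML1-DL cells (ABD Ca8 dye plus quencher, 45-90 min RT loading): baseline, then compound, then 110 s agonist window; EC80 agonist 54-4 at 4uM final added afterwards for a 110 s antagonist window.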
TRPML1 inh – inhibitors of human TRPML1 channel; TRPML1-inducible cells, Ca2+ dye fluorescence, FDSS; stronger effect = lower value; inhibition of EC80 agonist-evoked calcium signal; activity change, negative = inhibition, % (concentration not given with the values); 390,000 compounds, 0.02% hits; in the data active means activity change below about -50%; inconclusive means about -30% to -50%; inactive means above about -30%;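 further: stimulus is agonist 54-4 at its EC80 concentration; on the % scale 0 is the no-effect control and ±100 the full control effect; the text of the record puts the active cut at -80%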
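TRPML1-DL cells, Tet-induced overnight (~16 h, 37 °C) at 1,500 cells/well, were loaded with Ca8 no-wash dye plus quencher for 45-90 min at room temperature. Compounds were pinned during FDSS kinetic reading; agonist 54-4 at EC80 (4 uM final) then added.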
PINK1 expr mod – PINK1 expression modulation | AID 624263 | 410,000 compounds, 0.2% hits | PINK1 immunofluorescence, high-content cytometry, 24 h | Potency, µM (doses to about 76.6 µM), for the others: top-dose activation (PINK1 increase), actives largely listed as activators; active = well fitted activation curve with a large enough effect; inconclusive = small, poorly fitted or top-dose-only effect; inactive = flat fitted curve, though single readings scatter; cell line not stated here;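 further: potency means the concentration at half of the fitted maximal effect; % of control where 0% means no effect; nearly all actives have a fitted effect of over 65% in size; a mitochondrial uncoupler was the plate control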
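Readout is PINK1 immunofluorescence, quantified alongside mitochondrial, cell and nuclear markers by laser-scanning microplate cytometry. Cells from a stable line were exposed to compound titrations (5 concentrations) for 24 hours, with CCCP controls.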
D2 ag – agonists of human D2 dopamine receptor (beta-arrestin); P14416; DiscoveRx PathHunter D2 beta-arrestin, luminescence, 90 min; 100% = 57 uM dopamine signal; activation, % (no concentration beside the values); 360,000 compounds, 0.084% hits; AID 624465; in the data active = activation above about 40%; inconclusive = about 15% to 40%; inactive = below about 15%; further: compound concentration not given in the record; the text of the record calls up to 30% inactive
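DiscoveRx PathHunter D2 beta-arrestin cells (2,100/well) attached overnight, then compound-stimulated 90 min at 37 C in HBSS/10 mM HEPES/0.1% Tween-20 buffer; beta-galactosidase complementation read by luminescence after 1 h at ambient temperature. Dopamine 57 uM final (EC100) as control.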
An asterisk follows results filed as active; u = inconclusive; x = no result given; [ ] = dose if it differs, or a comment.

No.	canonical_smiles	CtBP-E1A inh	Six1-Eya2 inh	TRPML1 agonist	TRPML1 inh	PINK1 expr mod	D2 ag
1	COc1ccc(CCn2c(O)c(/C=N/N3CCCCC3)c(=O)[nH]c2=O)cc1OC	11	1	-0.6	10	1.1%	-0.9
2	CC(CN1CCOCC1)OC(=O)Cc1ccccc1 (stereo not drawn)	-9	1	-1.2	8	0.2%	-4.0
3	Cc1nc2c(c(C)nn2-c2ccccc2)c(C)c1CCC(=O)N1CCC2(CC1)OCCO2	6	0	-0.2	7	-1.7%	-1.3
4	CC1CCN(C(=O)CCl)CC1	x	0	0.9	8	1.7%	2.2
5	COP(=S)(OC)c1c(C)nn(CCC#N)c1NC(=O)c1ccc(Cl)cc1	8	-5	-0.5	-3	-2.2%	1.9
6	CCCC(=O)c1ccc(CP(=O)(OCC)OCC)o1	-11	-2	4.1	15	-0.8%	-2.7
7	CCC1=C(C)C(N2CCOCC2)=NP(N2CCOCC2)(N2CCOCC2)=N1	9	0	2.6	10	-2.7%	1.9
8	O=C(CCCC1=NS(=O)(=O)c2ccccc2N1)N1CCC2(CC1)OCCO2	-1	3	-0.3	3	-0.7%	-3.4
9	O=C1NC(=O)C2(CCN(S(=O)(=O)c3ccccc3)CC2)C(=O)N1	-19	-10	-0.4	-7	-2.5%	-2.8
10	CC(N=Cc1c(O)n(C2CC2)c(=S)[nH]c1=O)c1ccccc1 (stereo not drawn)	10	-9	-0.4	-3	0.9%	1.1
11	CN1C(=O)N(C)C(=O)C2(Cc3cc([N+](=O)[O-])ccc3N(C)C2)C1=O	-8	-2	-0.7	-2	0.9%	-1.7
12	CCOC(=O)C(O)(c1ccc(N(CC)S(=O)(=O)c2ccccc2)cc1)C(F)(F)F (stereo not drawn)	1	6	2.5	78	-0.7%	-8.3
13	O=c1c2ccccc2nc(-c2cccs2)n1-c1cnccn1	-9	5	0.7	3	-2.3%	-0.7
14	COc1ccc(-n2c(/C=C/c3ccc(O)c(O)c3)nc3ccccc3c2=O)cc1	x	-8	1.8	7	0.9%	4.2
15	Nc1c2c(nc3sc4c(c13)CCCC4)CCCCC2	-3	5	1.3	14	u	-3.9

The listing continues:
No.	canonical_smiles	CtBP-E1A inh	Six1-Eya2 inh	TRPML1 agonist	TRPML1 inh	PINK1 expr mod	D2 ag
16	O=c1[nH]c(=O)n(-c2cccc(Cl)c2)c(O)c1C=NCCCN1CCOCC1	1	6	-0.8	10	0.6%	0.1
17	C=CC[N+]1(C)C2CCC1CC(O)C2 (stereo not drawn)	7	8	1.0	-9	0.0%	7.6
18	Cc1cc(C=C2C(=O)NC(=S)NC2=O)c(C)n1C1CCCC1	6	4	-0.2	-7	8.4%	3.5
19	COCCCNC(=O)c1c(NC(=O)c2ccccc2Cl)n(Cc2ccccc2)c2nc3ccccc3nc12	-2	6	-0.3	23	5.6%	-2.7
20	CCn1c(P(C)(=O)O)nc2cc(NC(=O)c3ccccc3F)ccc21	0	-8	-0.3	-7	1.4%	-2.2
21	O=C(O)CCn1cc(C=C2C(=O)NC(=S)NC2=O)c(-c2cccc(Br)c2)n1	-18	-5	-0.3	-11	3.0%	-0.5
22	CCCCn1c(O)c(C(CC)=Nc2cccc(C(=O)O)c2)c(=O)[nH]c1=O	6	-1	-0.1	17	-1.7%	-0.4
23	c1ccc(CN2Cc3ccccc3-n3nncc3C2)cc1	0	-8	-0.1	10	0.3%	-6.3
24	COc1ccc(-c2nc3ccccc3n2OC(=O)N(C)C)cc1	0	-3	-0.8	-1	0.9%	-2.8
25	c1ccc(C2NCCc3[nH]cnc32)cc1 (stereo not drawn)	x	1	2.2	-2	-0.2%	3.0
26	COc1ccc(C(=O)C2CCCN(C3CSCCSC3)C2)c(C)c1 (stereo not drawn)	-9	-12	0.7	-4	0.7%	-0.5
27	O=C(NN=Cc1ccc(N(CCCl)CCCl)cc1)c1cccnc1	-8	-5	-0.1	-4	-3.1%	3.5
28	COc1ccc(C(=O)C2CCCN(Cc3ccsc3)C2)cc1OC (stereo not drawn)	1	-1	-0.5	-3	1.9%	2.8
29	CC(=O)OC1N=C(c2ccccc2)c2ccccc2NC1=O (stereo not drawn)	10	-1	0.5	21	-3.7%[38.3 µM]	0.6
30	OCCN(CC#CC(O)(c1ccccc1)C1CCCC1)CCO (stereo not drawn)	4	-1	-0.6	0	0.5%	-2.5

The results go on:
No.	canonical_smiles	CtBP-E1A inh	Six1-Eya2 inh	TRPML1 agonist	TRPML1 inh	PINK1 expr mod	D2 ag
31	CC1=CC(=O)OC2CC3OC4C[C@@H](C)C5OC6CC7O[C@]8(C)C/C=C\C9OC%10CC%11OC(CC(C)C%12OCCO%12)CC(O)[C@]%11(C)OC%10CC9OC8C[C@]7(C)O[C@]6(C)CCC5OC4C[C@]3(C)OC12 (stereo partly drawn)	1	9	14	-17	2.3%	1.2
32	CCOc1ccc(N)cc1	-7	-1	0.1	2	-0.5%	-2.8
33	CC1=CC2OC3CC4OC(=O)C=CC=CC(C(C)O)OCC(O)C5(C)OC5C(=O)OCC2(CC1O)C4(C)C31CO1 (stereo not drawn)	0	12	0.9	-5	-1.1%	-3.1
34	CCOS(C)(=O)=O	0	0	-0.7	2	0.9%	-2.2
35	C=CCc1cc(OC)c2c(c1)OCO2	10	4	x	x	1.6%	4.9
36	Cc1cccc(Cn2cccc(C(=O)Nc3ccc4c(c3)OCCO4)c2=O)c1	x	x	1.0	-1	0.7%	x
37	C=CCn1c(O)c(C(CC)=NC(C)c2ccccc2)c(=O)[nH]c1=O (stereo not drawn)	1	-1	0.7	-8	6.4%	-1.4
38	CN1C(=O)C(=Cc2ccc(N3CCCCCC3)o2)C(=O)N(C)C1=S	3	8	12	-23	9.4%	-3.1
39	S=C(NCCc1ccccc1)N1Cc2cc(Br)ccc2-n2nncc2C1	1	5	0.3	x	-1.0%	3.4
40	O=C1NC(=O)N(CC2CCCO2)C(=O)/C1=C/c1cccs1 (stereo not drawn)	6	2	3.5	7	5.3%	0.4
41	CCC(C)C12CN3CCN(CC(C)(C3)C1O)C2 (stereo not drawn)	4	6	-0.5	-1	-0.7%	1.6
42	COc1cc2c(c(OC)c1OC)-c1ccc(O)cc1C(NC(C)=O)CC2 (stereo not drawn)	-2	0	-0.4	0	11%	-0.9
43	CCNc1nc2[nH]c(=O)c3c(c2s1)OC(N)=C(C#N)C3c1cccs1 (stereo not drawn)	-7	1	-0.9	31	0.9%	-2.7
44	CCOc1cc2c(cc1OCC)-n1cccc1C(c1cccc(F)c1F)NC2 (stereo not drawn)	-11	-15	1.2	1	12%	-2.0
45	COC(=O)C1=CO[C@@H](C)[C@H]2CN3CC[C@]4(C(=O)Nc5ccccc54)[C@@H]3C[C@H]12	-9	5	x	x	-0.7%	-2.9

More entries follow:
No.	canonical_smiles	CtBP-E1A inh	Six1-Eya2 inh	TRPML1 agonist	TRPML1 inh	PINK1 expr mod	D2 ag
46	COc1ccc(NC(=O)c2sc3nc4c(cc3c2N)N2CCC4CC2)cc1OC	x	x	0.9	3	1.8%	x
47	COC(=O)C1=C(c2ccc(OCc3ccccc3)cc2)C[C@@H]2CC[C@H]1N2C(=O)NCc1cccc(OC)c1	-6	-10	0.6	21	-1.1%	-2.3
48	CCCCn1c(O)c(C(CC)=NCCCN(C)C)c(=O)[nH]c1=O	4	1	-0.3	5	2.2%	-4.0
49	CN1C(=O)C[N+]([O-])=C(c2ccccc2)c2cc(Cl)ccc21	-15	-7	-0.6	3	0.0%	2.5
50	NCCc1ccc(OCc2ccccc2)c(OCc2ccccc2)c1	9	-3	-0.6	-6	-3.9%	-3.0
51	COC(=O)C1C2c3ccccc3OC1(C)N=c1s/c(=C/c3cnn(C)c3)c(=O)n12 (stereo not drawn)	5	3	-0.3	-4	-2.1%	-5.8
52	CN(C)C(=O)Oc1cc(=O)n2c3c(cccc13)CCC2	-17	-16	0.2	11	-1.4%	-5.1
53	CC1CN(c2ccc([N+](=O)[O-])c3cccnc23)CC(C)N1 (stereo not drawn)	-24	-20	0.1	13	-2.1%	-0.9
54	CCOC(=O)C1=C(N)OC2=C(C(=O)CC(C)(C)C2)C12C(=O)Nc1ccccc12 (stereo not drawn)	7	3	-0.1	4	-2.7%[38.3 µM]	-0.9
55	CC(C(=O)c1cn(C)c2ccccc12)c1ccccc1 (stereo not drawn)	31	13	-0.2	21	-1.0%[38.3 µM]	-0.8
56	CC(C)(C)n1nnnc1C(C1CC1)N1CCC2(CC1)C(=O)NCN2c1ccccc1 (stereo not drawn)	-1	-6	-0.7	x	0.0%	-2.7
57	COC(=O)C1=C(c2ccc(Cl)c(C(F)(F)F)c2)C[C@@H]2CC[C@H]1N2C(=O)NCc1ccc2c(c1)OCO2	5	5	0.0	-11	0.6%	-4.0
58	CC1CC(C)CN(CC(=O)c2ccc(OC(F)F)cc2)C1 (stereo not drawn)	-2	1	0.4	16	3.5%	-18
59	O=C1C2CCN(CC2)C1Cc1ccc(OCc2ccccc2)cc1 (stereo not drawn)	31	22	0.3	17	0.6%	0.3
60	N[C@@H](Cc1c[nH]c2ccccc12)c1nnc(SCc2ccccc2F)o1	0	-7	0.6	5	2.1%	-0.1

(listing goes on)
No.	canonical_smiles	CtBP-E1A inh	Six1-Eya2 inh	TRPML1 agonist	TRPML1 inh	PINK1 expr mod	D2 ag
61	COc1cccc(C(=O)C2CCCN(Cc3cccc4c3OCO4)C2)c1 (stereo not drawn)	x	-5	0.9	0	-0.3%	-5.4
62	O=S(=O)(c1ccc(O)cc1)c1ccc(O)cc1	-2	8	2.7	4	-0.4%	-1.9
63	COC1=CC(=O)[C@]2(C=C1OC)OC[C@@H]1Oc3c(ccc4c3C=CC(C)(C)O4)C(=O)[C@@H]12	1	-1	1.2	14	-0.6%	0.1
64	COC(=O)C1C2c3ccccc3C(c3ccccc32)C1C(=O)OC (stereo not drawn)	2	2	-0.2	4	-0.4%	4.8
65	COc1ccc(C2C(C(=O)N3CCC4(CC3)OCCO4)c3cc(OC)c(OC)cc3C(=O)N2C)cc1 (stereo not drawn)	12	4	0.3	-18	-0.9%	-1.1
66	Cc1c(N=Cc2c(O)n(CCc3ccccc3)c(=O)[nH]c2=O)c(=O)n(-c2ccccc2)n1C	-9	-26	0.0	-15	2.6%	-0.7
67	C[C@@H]1O[C@@H](O[C@@H]2C=C3CCC4C(CC[C@]5(C)[C@@H](c6ccc(=O)oc6)CC[C@]45O)[C@@]3(C)CC2)[C@H](O)[C@H](O)[C@H]1O (stereo partly drawn)	3	1	-0.1	19	-0.9%	-5.9
68	CCC1=CCN(CCc2c(C)[nH]c3ccccc23)CC1	-5	-13	x	x	0.6%	-3.7

Screening results from PubChem BioAssay.

Some of the compounds tested; count on the stated rates, not on these rows.
